# Source: PubChem
# miR-21 reporter: raises the signal of a miR-21 reporter; HeLa miR-21 FLuc reporter, luciferase, 48 h; Potency, µM (highest dose often 38.3 µM), without a hit: top-dose reporter change, positive = more light; 340,000 tested, under 10 active; AID 2288; active = well fitted rising curve with a large enough effect; inconclusive = small, poorly fitted or top-dose-only effect; inactive = no such curve, though single readings can be large or run the other way;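 also: % of control where 0% means no effect; miR-21 action dims this reporter so a rising signal means less miR-21 action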
#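 Luminescence from a firefly luciferase reporter carrying a miR-21 binding site downstream, stably expressed under a CMV promoter in HeLa cells that make miR-21 endogenously, reports miRNA modulation after 48 h compound exposure up to approximately 40uM final.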
# GLA inh pH 4.5: blocks human alpha-galactosidase A at pH 4.5 | P06280 | purified enzyme, 4-MU-alpha-Gal fluorescence, pH 4.5 | activity change, negative = inhibition, % at 105 µM | 230,000 tested, under 10 active; inconclusive = small, poorly fitted or top-dose-only inhibition, or a rising curve; inactive = flat fitted curve, though single readings scatter; no compound was filed as active;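 also: 0% = full activity with enzyme and -100% = basal without enzyme; dose as in the result columns while the protocol names 77 µM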
# Target sequence (P06280 whole entry, looked up): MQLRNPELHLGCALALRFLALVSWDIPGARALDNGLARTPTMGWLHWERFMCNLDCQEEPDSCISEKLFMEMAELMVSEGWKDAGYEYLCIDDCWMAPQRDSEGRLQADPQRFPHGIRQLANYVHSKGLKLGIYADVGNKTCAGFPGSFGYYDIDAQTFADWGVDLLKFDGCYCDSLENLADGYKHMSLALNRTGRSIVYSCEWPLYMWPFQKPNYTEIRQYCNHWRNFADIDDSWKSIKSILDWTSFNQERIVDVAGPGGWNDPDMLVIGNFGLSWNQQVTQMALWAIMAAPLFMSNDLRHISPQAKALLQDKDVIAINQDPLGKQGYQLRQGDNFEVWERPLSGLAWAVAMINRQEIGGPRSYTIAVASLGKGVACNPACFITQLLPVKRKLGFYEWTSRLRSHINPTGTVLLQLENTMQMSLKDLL
# Rango dissoc inh: inhibition of RanGTP-driven Rango-importin beta dissociation. AID 540253. Biochemical FRET Rango-importin beta, RanGTP-induced dissociation. Potency, µM (top dose mostly 46.1 µM), for inactives: at the top dose activity change, negative = inhibition. 340,000 tested, 0.071% active. O95149+P62826; active means falling FRET ratio curve, often poorly fitted, with flat reads before Ran was added; inconclusive means other falling curves, or compound fluorescence or quenching; inactive means flat or rising ratio curve;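 also: potency is read from the fitted curve at half-maximal effect; % of control where 0% means no effect; nearly all actives have a fitted effect of over 45% in size; -100% = wells without RanGTP and RCC1; the record marks most hits as doubtful in a second field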
#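 FRET read at 45 min, room temperature: inhibitors block the CFP/YFP signal rise when RanGTP (0.6 uM Ran, 2 mM GTP, 0.2 uM RCC1) frees Rango (0.1 uM) from importin beta (0.25 uM). Pre-read after 5 min compound exposure flags interference.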
# Rango-impB inh: Rango-importin beta binding inhibition; Q14974; Rango CFP/YFP FRET sensor + importin beta, 45 min; Potency, µM (titrated, usually from 92.2 µM), for inactives: at the highest dose inhibition of complex formation; 340,000 tested, 0.031% active; AID 540263; active = rising FRET ratio curve, often small or poorly fitted; inconclusive = mostly compound fluorescence or quenching in the first reads; inactive = flat curves in all reads;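 also: potency is read from the fitted curve at half-maximal effect; 0% = DMSO wells and 100% = buffer wells lacking importin beta; nearly all actives have a fitted effect of over 15% in size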
#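 Inhibition scored from the CFP 486 nm/YFP 530 nm FRET ratio 45 min after adding 0.125 microM importin beta to 50 nM Rango biosensor preincubated 5 min with compound (room temperature, PBS with DTT, Tween-20, BSA). No-importin wells as positive control.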
# The depositor's hits bear a star; u = inconclusive; x = not tested or not shown; [ ] = another dose, or the depositor's remark.
# Values run as follows: GLA inh pH 4.5	miR-21 reporter	Rango dissoc inh	Rango-impB inh
O=C(CCn1c(=S)[nH]c2ccccc2c1=O)NCCc1ccc(Cl)cc1
    6.5	-2.4%	0.8%	-2.9%
COc1cc(OC)cc(C(=O)NCCN2CCOCC2)c1
    1.5	-5.2%	1.6%	-0.6%
COC(=O)C1CN(C(=O)C(C)Oc2ccc(C)c(C)c2)c2ccccc2O1 (centres undefined)
    x	-4.5%	-1.8%	0.0%
CCOc1ccc(NC(=O)CS(=O)CC(=O)N(CC(=O)NC(C)(C)C)C2CCCC2)cc1 (centres undefined)
    x	-2.0%	-7.0%	0.9%
COc1ccc2[nH]c(C)c(CCNC(=S)Nc3ccccc3C)c2c1
    0.7	2.8%	-16.7%	-3.9%
Cc1ccc(C)c(S(=O)(=O)N(C)C2(C)CCS(=O)(=O)C2)c1 (centres undefined)
    x	x	9.7%	0.2%
O=C(CCNC(=O)c1ccccc1Cl)Nc1ccccc1N1CCCC1
    x	-0.6%	2.9%	-3.1%
CCOC(=O)CCCNC(=O)CSc1nc2ccc(OCC)cc2[nH]1
    -12.5	-0.1%	-1.6%	0.4%
O=C(COC(=O)CCc1nc2ccccc2c(=O)[nH]1)Nc1ccccc1
    x	x	6.9%	-0.1%
Cc1ccc(NC(=O)C(=O)NCCCN2CCOCC2)c(C)c1
    4.0	-4.5%	10.4%	-6.0%
O=C(COC(=O)/C=C/c1ccc2c(c1)OCO2)NCc1ccccc1
    x	x	-1.0%	-0.9%
O=C(COC(=O)CCC(=O)c1ccc(F)cc1)Nc1cccc(S(=O)(=O)N2CCOCC2)c1
    -6.2	0.4%	23.6%	-0.7%
O=C(O)Cn1nnnc1SCC(=O)Nc1ccc(F)cc1F
    -1.1	-0.3%	-8.1%	-2.3%
CCc1ccc(C(=O)NNC(=O)c2c(CC)noc2C)cc1
    x	x	-5.0%	4.9%
N#Cc1nc(-c2cccs2)oc1N1CCN(c2ccccc2)CC1
    19.0	-4.7%	9.6%	4.2%
COc1ccc(NC(=O)CCN2CCC(C)CC2)cc1
    -20.0	-1.1%	-5.4%	-0.2%
O=C(NNC(=O)c1cc2ccccc2cc1O)Nc1ccc(F)cc1F
    x	-3.1%	u	u
Cc1ccc2c(COC(=O)c3ccccc3Br)cc(=O)oc2c1
    x	-24.9%	-4.0%	0.4%
CCCn1c(COc2ccccc2)nc2ccccc21
    x	-19.5%	1.2%	6.4%
COc1ccccc1Nc1nc(Cl)c(C=O)s1
    -5.7	-9.1%	u	u

# One compound at a time, from the list above.
# `O=C(O)Cn1nnnc1SCC(=O)Nc1ccc(F)cc1F` is listed as GLA inh pH 4.5 = -1.1; miR-21 reporter = -0.3%; Rango dissoc inh = -8.1%; Rango-impB inh = -2.3%
# `CCOc1ccc(NC(=O)CS(=O)CC(=O)N(CC(=O)NC(C)(C)C)C2CCCC2)cc1` (centres undefined) is listed as GLA inh pH 4.5 = x; miR-21 reporter = -2.0%; Rango dissoc inh = -7.0%; Rango-impB inh = 0.9%

# Other entries follow.
# Values run as follows: GLA inh pH 4.5	miR-21 reporter	Rango dissoc inh	Rango-impB inh
O=C(Nc1cccc2ncccc12)c1cc([N+](=O)[O-])ccc1Cl
    x	0.9%	4.2%	0.3%
Cc1cccn2c(=O)c(/C=N/O)c(N3CCCCC3)nc12
    -2.4	-6.4%	-6.9%	2.8%
O=C(NCc1ccccc1Cl)C1CCN(S(=O)(=O)N2CCOCC2)CC1
    -5.0[21.1 µM]	-10.1%	-9.0%	-0.3%
Clc1ccc2nc(NC3=NCN(CCN4CCOCC4)CN3)nc(-c3ccccc3)c2c1
    -1.7	2.6%	x	x
Cc1ccc(N2C(=O)N(CC(=O)Nc3ccc(F)c(F)c3)C(=O)C2C)cc1 (centres undefined)
    x	x	-17.2%	-0.1%
CCC1CCc2sc(C(=O)NCC(c3ccccc3OC)N3CCCC3)cc2C1 (centres undefined)
    x	x	-6.6%	4.0%
CCOC(=O)c1ccc(NC(=O)CNC(=O)C23CC4CC(CC(C4)C2)C3)cc1
    8.6	-2.1%	0.7%	-0.6%
CN(Cc1ccccc1)C(=O)Cn1c(=O)oc2cc(S(=O)(=O)N3CCCC3)ccc21
    -7.0	8.0%	-26.8%	3.7%
C=CCCN(Cc1ccccc1)S(=O)(=O)c1cc(Br)ccc1Br
    x	x	-18.0%	-2.0%
Cc1ccc2[nH]c(=O)c(CN(Cc3cccs3)C(=S)NCC3CCCO3)cc2c1 (centres undefined)
    -1.1	-0.6%	18.0%	-3.7%
CCN(C(=S)Nc1cccnc1)c1ccccc1
    3.6	0.0%	-10.4%	-0.9%
COCCCNC(=O)CC(NS(=O)(=O)c1ccc(Cl)cc1)c1ccc(OC)cc1 (centres undefined)
    10.5	-4.3%	0.2%	2.0%
COCCN(Cc1cc2cccc(C)c2[nH]c1=O)C(=O)c1ccccc1
    -1.8	-3.9%	-13.5%	2.9%
CCC1=Nc2cc(C(=O)NCCN3CCOCC3)ccc2Sc2ccc(Br)cc21
    x	-0.7%	6.7%	-2.5%
COc1ccc(/C=C/C(=O)O/N=C(\N)c2cccnc2)cc1OC
    5.3	-36.8%	-12.6%	-1.0%
Cc1ccc(S(=O)(=O)Cn2nnnc2C(C(C)C)N2CCN(C(=O)c3ccco3)CC2)cc1 (centres undefined)
    x	x	-3.1%	0.7%
COc1ccc(OC)c(N=Nc2c(O)c3ccccc3[nH]c2=O)c1
    x	x	13.0%	-2.2%
Cc1ccc(C(=O)CSc2nsc(C)c2C#N)cc1
    -1.5	-59.8%	0.6%	-0.4%
COC(=O)CCc1c(C)[nH]c(=S)[nH]c1=O
    2.4	-4.0%	-11.3%	0.2%
Cc1ncc(S(=O)(=O)c2ccc(Cl)cc2)c(-c2ccccc2)n1
    7.4	-6.9%	-10.3%	5.7%

# The list continues.
# Values run as follows: GLA inh pH 4.5	miR-21 reporter	Rango dissoc inh	Rango-impB inh
O=C(c1cnc2nc3ccccc3n2c1)c1cc(F)ccc1O
    -0.4	-27.8%	u	u
C=CCn1c(CNc2ccccc2)nnc1SCC(=O)N/N=C/c1ccccc1O
    -1.2	-2.6%	-8.8%	-0.6%
CCOC(=O)CSc1nnc(NC(=O)c2ccco2)s1
    x	2.3%	12.5%	1.7%
CN(C)C(=O)CSc1nnc(-c2ccc(S(=O)(=O)N3CCCC3)cc2)n1C
    x	6.1%	0.7%	6.1%
NC(=O)c1cc(Cl)ccc1OCC(=O)N1CCCc2ccccc21
    x	-10.1%	-9.0%	-0.2%
Cn1c(N)c(C(=O)COC(=O)CSc2ccc(Cl)cc2)c(=O)n(C)c1=O
    -2.0	-8.1%	-3.4%	8.7%
O=C(NCCCN1C(=O)c2ccccc2C1=O)OCc1ccccc1
    x	x	0.7%	2.2%
COc1cccc(NC(=O)CN2C(=O)COc3ccc(S(=O)(=O)N4CCC(C)CC4)cc32)c1
    x	10.7%	-8.1%	-1.6%
Cc1cc(C)c(NC(=O)CSc2nnc(-c3ccncc3)n2Cc2ccco2)c(Cl)c1
    1.8	0.1%	-10.3%	-1.6%
CCN1CCN(CCc2nc3cc(NC(=O)COc4ccccc4)ccc3n2C)CC1
    x	-14.5%	-5.4%	-2.1%
O=C(Nc1c(C(=O)N2CCOCC2)cnn1-c1ccccc1)c1ccc(F)cc1
    x	-10.1%	45.3%	1.1%
O=c1ccnc(NCCc2ccccc2)[nH]1
    -3.4	-9.1%	-13.4%	0.7%
CC(NC(=O)c1cc(Br)ccc1Cl)c1ccccc1 (centres undefined)
    3.7	1.8%	0.5%	-1.7%
CSCCC(/C(O)=C(\C#N)c1nc2ccccc2[nH]1)N1C(=O)c2ccccc2C1=O (centres undefined)
    -1.7	-0.1%	-10.1%	-2.7%
Cc1ccc(OCc2ccc(C(=O)NCc3cccnc3)cc2)cc1C
    1.3	3.5%	-12.5%	0.7%
COc1ccc2nc(SCC(=O)Nc3cc(C)on3)c(C#N)cc2c1
    x	-20.3%	3.3%	-0.7%
Cn1cc(C(=O)NCc2cccs2)c(=O)c2cc(S(=O)(=O)N3CCCC3)ccc21
    0.2	1.3%	-2.5%	-1.2%
CCC(=O)N1CCN(CCN=CC2=C(O)CC(c3ccc(OC)cc3)CC2=O)CC1 (centres undefined)
    -3.5	1.3%	1.6%	0.1%
CC(C)(C)c1ccc(S(=O)(=O)CCc2ccccn2)cc1
    -6.4	-57.3%	-3.4%	0.9%
CC(Oc1ccc(C(=O)c2ccc(F)cc2)cc1)C(=O)N1CCOCC1 (centres undefined)
    x	x	-12.1%	4.0%

# Remaining list, next part
# Values run as follows: GLA inh pH 4.5	miR-21 reporter	Rango dissoc inh	Rango-impB inh
Cc1cc(OC(=O)Cc2cccc3ccccc23)c([N+](=O)[O-])c(=O)[nH]1
    4.7	0.2%	1.3%	-0.8%
CC1CCN(S(=O)(=O)c2ccc3c(ccn3CCC(=O)N3CCCCC3)c2)CC1
    x	6.8%	11.5%	-2.9%
COc1ccccc1/C=C(\NC(=O)c1ccc(OC)c(OC)c1)C(=O)Nc1cc([N+](=O)[O-])ccc1C
    4.8	-4.4%	27.5%	-2.3%
CCNS(=O)(=O)c1ccc(CCC(=O)NCc2ccc(C)cc2)cc1
    1.5	-0.9%	4.6%	0.5%
COc1ccc(-c2nn(CCC#N)cc2/C=N/O)cc1OC
    -4.1	-1.9%	-9.7%	-2.8%
CSCCC(NC(=O)c1ccoc1C)C(=O)O (centres undefined)
    7.1	0.2%	-3.4%	3.2%
O=C(CCN1CCCCCC1)Nc1ccccc1F
    x	x	0.5%	-1.0%
COc1ccc(C(=O)Nc2ccccc2N2CCOCC2)cc1[N+](=O)[O-]
    6.5	0.1%	-6.0%	1.1%
Cc1ccc(CNC(=O)CCc2ccc(S(=O)(=O)NC3CCCCC3)cc2)cc1
    1.8	2.3%	21.1%	0.9%
O=C(Nc1ccccc1)c1ccc(F)c(S(=O)(=O)N2CCOCC2)c1
    4.2	5.5%	-17.0%	-0.9%
O=C(CCNC(=O)c1ccc(Cl)cc1)Nc1ncccc1O
    x	-4.8%	7.2%	1.4%
Cc1cc(C)c(S(=O)(=O)/N=C2/C=C(Sc3ncn[nH]3)C(=O)c3ccccc32)cc1C
    2.8	u	8.4%	5.8%
Cc1ccc(OCc2nnc(SCC(=O)Nc3ncc(C)s3)o2)cc1
    -2.3	0.6%	0.4%	-0.9%
COc1cc(-c2nnc(-c3ccco3)o2)ccc1OCc1ccccc1
    0.9	-43.0%	-4.2%	0.3%
CC[C@]12c3[nH]c4cc(-c5ccco5)ccc4c3CCN1C(=O)[C@@H](CC(=O)NCCC1=CCCCC1)C[C@@H]2C(=O)N1CCN(C(=O)C2CC2)CC1
    x	x	-19.5%	u
C/C(=N\Nc1ccccc1C)c1cccnc1
    x	-5.2%	8.8%	3.5%
C=CCN1CN(CCc2ccccc2)CNC1=S
    -14.8	-0.5%	-8.7%	-5.0%
NC(=S)c1ccc[n+]([O-])c1
    x	x	0.7%	0.1%
CC(NC(=O)c1ccco1)c1nc(-c2ccc(C(C)(C)C)cc2)no1 (centres undefined)
    x	-13.7%	-1.0%	1.7%
COCCCNC(=O)CC(NS(=O)(=O)c1ccc(F)cc1)c1ccc(OC)cc1 (centres undefined)
    5.4	-1.5%	0.5%	0.1%

# Next section.
# Values run as follows: GLA inh pH 4.5	miR-21 reporter	Rango dissoc inh	Rango-impB inh
O=C(Nc1ccc(OC(F)(F)F)cc1)C1CCCN(S(=O)(=O)c2cnc[nH]2)C1 (centres undefined)
    x	1.9%	-1.6%	0.2%
C[C@@H](C(=O)OCC(=O)Nc1cc(S(=O)(=O)N2CCOCC2)ccc1Cl)N1C(=O)C2CCCCC2C1=O (some centres undefined)
    -4.7	-2.6%	-8.9%	-1.2%
COc1ccccc1C(=O)NCCC(=O)NNC(=O)C1COc2ccccc2O1 (centres undefined)
    x	x	-9.4%	0.2%
OCc1ccc(O)c2ncccc12
    7.9	24.7%	13.3%	2.7%
CCN(CC)CCNC(=O)c1ccc(Sc2ccc(C)cc2)c(NC(C)=O)c1
    2.4[21.1 µM]	-0.7%	2.2%	u
O=C(NNC(=S)NC(=O)c1sc2ccccc2c1Cl)c1ccc(Cl)cc1
    -2.7	-19.6%	14.7%	-1.6%
Clc1ccccc1-c1nn2c(-c3ccncc3)nnc2s1
    1.0	-5.3%	0.2%	2.7%

# Some of the compounds tested (hit frequency here may not be typical).
